HIV Env fusion = blocks HIV Env-driven cell-cell fusion. HeLa-JRFL Env/CEM21 cell fusion, luciferase. inhibition, % at 12.3 µM. 1.1% of 360,000 active;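 active means mean replicate inhibition score of at least 50 and every replicate individually at or above 50; inconclusive means only one of the two criteria met; inactive means mean below 50 and not all replicates reaching 50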;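 further: 0% = plate neutral controls and 100% = maraviroc near 300 nM; one replicate is shown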
UUG fidelity = yeast start codon fidelity modulation. S. cerevisiae UUG-firefly luciferase reporter, luminescence/redox ratio. activity score, % at 18.7 µM. 0.13% of 350,000 active;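 active means replicate mean at a twofold rise or more, about +100% in these data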;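 further: firefly luciferase made from a UUG start codon reports start codon fidelity; reporter light over untreated wells divided by growth signal over untreated wells; some hits fall short of that in this replicate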
Active calls of the source: *; ? = inconclusive; [ ] = remark or other dose.

SMILES | HIV Env fusion | UUG fidelity
Cc1noc(C)c1S(=O)(=O)N(C)C[C@@H]1OCCCC[C@H](C)Oc2ccc(NC(=O)Nc3ccc4c(c3)OCO4)cc2C(=O)N([C@H](C)CO)C[C@@H]1C | 30[16.7 µM] | -18
Cc1ccc(S(=O)(=O)N[C@H]2C=C[C@H](CC(=O)NC3CCCCC3)O[C@@H]2CO)cc1 | -6[16.7 µM] | -4
C[C@H](CO)N1C[C@H](C)[C@@H](CN(C)C(=O)Nc2cccc3ccccc23)Oc2ccc(NC(=O)C3CC3)cc2C1=O | 26[16.7 µM] | 3
COc1ccc(NC(=O)Nc2ccc3c(c2)C(=O)N([C@@H](C)CO)C[C@H](C)[C@@H](CN(C)S(=O)(=O)c2cccs2)OCCCC[C@H](C)O3)cc1 | 2[16.7 µM] | 0
Cc1ccc(S(=O)(=O)N[C@H]2CC[C@H](CCn3cc(-c4ccccc4F)nn3)O[C@@H]2CO)cc1 | 2[16.7 µM] | 15
COc1ccccc1NC(=O)N[C@H]1CC[C@@H](CCn2cc(-c3ccccc3)nn2)O[C@H]1CO | 4[16.7 µM] | -3
C[C@@H]1CCCCO[C@H](CN(C)Cc2ccc3c(c2)OCO3)[C@@H](C)CN([C@@H](C)CO)C(=O)c2cc(NC(=O)Nc3ccccc3)ccc2O1 | -64[16.7 µM] | 3
C[C@H]1CN([C@@H](C)CO)C(=O)Cc2cc(NS(=O)(=O)c3cccs3)ccc2O[C@@H]1CN(C)CC1CCCCC1 | 3[16.7 µM] | -3
CNC[C@@H]1Oc2ccc(N(C)C)cc2CC(=O)N([C@H](C)CO)C[C@@H]1C | 10[16.7 µM] | -10
COc1ccc([Si](C)(C)[C@H]2[C@H](CCn3cc([C@H](O)c4ccccc4)nn3)O[C@@]3(C(=O)N(C)c4ccccc43)[C@@H]2C)cc1 | 4[16.7 µM] | 1
C[C@H]1CN([C@@H](C)CO)C(=O)Cc2cc(NS(=O)(=O)c3ccc(F)cc3)ccc2O[C@@H]1CN(C)S(=O)(=O)c1cccs1 | -8[16.7 µM] | 10
CNC[C@@H]1Oc2ccc(N)cc2C(=O)N([C@@H](C)CO)C[C@H]1C | -12[16.7 µM] | 39
Cc1ccccc1-c1ccc2c(c1)O[C@@H](CN(C)C)[C@@H](C)CN([C@H](C)CO)S2(=O)=O | 0[16.7 µM] | -2
COc1ccc(NC(=O)Nc2cccc3c2O[C@@H](CN(C)S(=O)(=O)c2ccc(OC)cc2)[C@@H](C)CN([C@@H](C)CO)C3=O)cc1 | -19[16.7 µM] | 2
CCCNC(=O)Nc1ccc2c(c1)OC[C@@H](C)N(C)C[C@H](C)[C@@H](OC)CN(C)C2=O | 4[16.7 µM] | 7

An excerpt from above in order of number of heavy atoms, rising:
SMILES | HIV Env fusion | UUG fidelity
CNC[C@@H]1Oc2ccc(N)cc2C(=O)N([C@@H](C)CO)C[C@H]1C | -12[16.7 µM] | 39
CNC[C@@H]1Oc2ccc(N(C)C)cc2CC(=O)N([C@H](C)CO)C[C@@H]1C | 10[16.7 µM] | -10
Cc1ccccc1-c1ccc2c(c1)O[C@@H](CN(C)C)[C@@H](C)CN([C@H](C)CO)S2(=O)=O | 0[16.7 µM] | -2
Cc1ccc(S(=O)(=O)N[C@H]2CC[C@H](CCn3cc(-c4ccccc4F)nn3)O[C@@H]2CO)cc1 | 2[16.7 µM] | 15
C[C@H]1CN([C@@H](C)CO)C(=O)Cc2cc(NS(=O)(=O)c3cccs3)ccc2O[C@@H]1CN(C)CC1CCCCC1 | 3[16.7 µM] | -3
COc1ccc([Si](C)(C)[C@H]2[C@H](CCn3cc([C@H](O)c4ccccc4)nn3)O[C@@]3(C(=O)N(C)c4ccccc43)[C@@H]2C)cc1 | 4[16.7 µM] | 1
COc1ccc(NC(=O)Nc2cccc3c2O[C@@H](CN(C)S(=O)(=O)c2ccc(OC)cc2)[C@@H](C)CN([C@@H](C)CO)C3=O)cc1 | -19[16.7 µM] | 2
COc1ccc(NC(=O)Nc2ccc3c(c2)C(=O)N([C@@H](C)CO)C[C@H](C)[C@@H](CN(C)S(=O)(=O)c2cccs2)OCCCC[C@H](C)O3)cc1 | 2[16.7 µM] | 0

(further entries)
SMILES | HIV Env fusion | UUG fidelity
O=C(Nc1ccccc1F)N[C@@H]1CC[C@@H](CCNC(=O)C2CC2)O[C@H]1CO | -16[16.7 µM] | 25
C[C@H](CO)N1C[C@H](C)[C@@H](CN(C)C(=O)Nc2ccccc2)Oc2ccc(NS(=O)(=O)c3cccs3)cc2CC1=O | -22[16.7 µM] | -3
C[C@@H]1CN([C@H](C)CO)C(=O)Cc2cc(NC(=O)C3CCCCC3)ccc2O[C@H]1CN(C)C(=O)Nc1ccc(C(F)(F)F)cc1 | 7[16.7 µM] | -1
Cc1noc(C)c1NC(=O)Nc1ccc2c(c1)C(=O)N([C@@H](C)CO)C[C@H](C)[C@H](CN(C)S(=O)(=O)c1ccc(Cl)cc1)O2 | -133[16.7 µM] | 16
C[C@H]1CN([C@@H](C)CO)C(=O)c2cc(NC(=O)C3CC3)ccc2O[C@@H]1CN(C)C(=O)Nc1ccc2c(c1)OCO2 | -14[16.7 µM] | 9
COc1ccccc1-c1cnc2c(c1)C(=O)N([C@@H](C)CO)C[C@H](C)[C@H](CN(C)Cc1cccnc1)O2 | -26[16.7 µM] | -9
C[C@H]1CCCCO[C@H](CN(C)S(=O)(=O)c2cccs2)[C@@H](C)CN([C@@H](C)CO)C(=O)c2cc(NS(=O)(=O)c3ccccc3)ccc2O1 | -5[16.7 µM] | -7
CO[C@@H]1CN(C)C(=O)c2ccc(NS(=O)(=O)c3cn(C)cn3)cc2OC[C@H](C)N(C)C[C@H]1C | 6[16.7 µM] | -14
C[C@H](CO)N1C[C@H](C)[C@H](CN(C)S(=O)(=O)c2ccccc2)OCCCC[C@H](C)Oc2ccc(NS(=O)(=O)c3cn(C)cn3)cc2C1=O | 1[16.7 µM] | -8
Cc1ccc(S(=O)(=O)N[C@@H]2CC[C@@H](CCn3cc(C4CCCCC4)nn3)O[C@H]2CO)cc1 | -80[16.7 µM] | 5
COc1ccccc1NC(=O)N[C@@H]1CC[C@H](CCNS(=O)(=O)c2ccc(Cl)cc2)O[C@@H]1CO | 8[16.7 µM] | 0
N#C[C@@H]1[C@H](c2ccc(C#CC3CCCCC3)cc2)[C@H](CO)N1S(=O)(=O)c1ccccc1 | -3[16.7 µM] | -10
C[C@@H]1CCCCO[C@H](CN(C)Cc2ccc3c(c2)OCO3)[C@@H](C)CN([C@H](C)CO)C(=O)c2cc(NC(=O)Nc3ccccc3)ccc2O1 | 14[16.7 µM] | 15
CNC[C@H]1Oc2cc(-c3ccc(C)cc3)ccc2S(=O)(=O)N([C@H](C)CO)C[C@@H]1C | 1[16.7 µM] | 11
C[C@H]1CN([C@@H](C)CO)C(=O)c2cc(C#Cc3ccncc3)cnc2O[C@@H]1CN(C)CC1CCCC1 | -22[16.7 µM] | -7
C[C@H]1CN([C@@H](C)CO)C(=O)c2cc(Br)cnc2O[C@H]1CN(C)S(=O)(=O)c1ccccc1 | 43[16.7 µM] | -1
COC(=O)[C@H]1[C@@H]2COc3ccccc3[C@H]2N[C@H]1C(=O)OC | 9[16.7 µM] | -14
CN(C)C(=O)C[C@@H]1CC[C@H]2[C@H](COc3ccc(NC(=O)C4CCCCC4)cc3C(=O)N2C)O1 | 1[16.7 µM] | 21
COc1cccc(C#Cc2cnc3c(c2)C(=O)N([C@@H](C)CO)C[C@@H](C)[C@H](CN(C)C(=O)C2CCC2)O3)c1 | ? | -5
C[C@H](CO)N1C[C@H](C)[C@@H](CN(C)S(=O)(=O)c2ccc(Cl)cc2)Oc2ccc(NS(=O)(=O)c3ccc(Cl)cc3)cc2CC1=O | 10[16.7 µM] | -3
C[C@H](CO)N1C[C@H](C)[C@H](CN(C)C(=O)C2CCOCC2)Oc2ncc(-c3ccccc3F)cc2C1=O | -1[16.7 µM] | -1
C[C@@H]1CN([C@H](C)CO)S(=O)(=O)c2ccc(C#Cc3ccccc3)cc2O[C@@H]1CN(C)S(C)(=O)=O | -67[16.7 µM] | -1
C[C@H](CO)N1C[C@H](C)[C@@H](CN(C)S(=O)(=O)c2ccc(Cl)cc2)Oc2ccc(NS(C)(=O)=O)cc2C1=O | 7[16.7 µM] | -13
COc1ccc(S(=O)(=O)Nc2ccc3c(c2)C(=O)N([C@H](C)CO)C[C@@H](C)[C@@H](CN(C)S(=O)(=O)c2ccc(C)cc2)O3)cc1 | -10[16.7 µM] | -4
C[C@H]1CN([C@@H](C)CO)C(=O)c2cc(C3=CCCCC3)cnc2O[C@@H]1CN(C)Cc1cccc(F)c1 | 0[16.7 µM] | 16
C[C@H]1CN([C@@H](C)CO)C(=O)Cc2cc(NC(=O)Cc3cn(C)c4ccccc34)ccc2O[C@@H]1CN(C)S(=O)(=O)c1ccc(F)cc1 | -21[16.7 µM] | 0
COc1ccc(S(=O)(=O)Nc2ccc3c(c2)C(=O)N([C@@H](C)CO)C[C@@H](C)[C@@H](CN(C)C(=O)NC(C)C)OCCCC[C@@H](C)O3)cc1 | -27[16.7 µM] | 38
CCCc1cn(CC[C@H]2CC[C@@H](NS(=O)(=O)c3ccc(-c4ccccc4)cc3)[C@@H](CO)O2)nn1 | 26[16.7 µM] | -1
COCC(=O)Nc1ccc2c(c1)C(=O)N(C)[C@@H]1CC[C@@H](CC(=O)NCc3ccccc3)O[C@@H]1CO2 | -10[16.7 µM] | -9
COc1ccc(CN(C)C[C@@H]2Oc3ccc(NS(=O)(=O)c4ccccc4)cc3CC(=O)N([C@@H](C)CO)C[C@@H]2C)cc1 | -17[16.7 µM] | 21
Cc1ccc(S(=O)(=O)Nc2ccc3c(c2)C(=O)N([C@@H](C)CO)C[C@H](C)[C@@H](CN(C)Cc2ccc(-c4ccccc4)cc2)O3)cc1 | -15[16.7 µM] | 11
C[C@@H]1CCCCO[C@H](CN(C)Cc2ccc(Cl)c(Cl)c2)[C@@H](C)CN([C@@H](C)CO)C(=O)c2cc(NC(=O)Cc3ccccc3)ccc2O1 | -23[16.7 µM] | 15
CCCC(=O)Nc1ccc2c(c1)OC[C@@H](C)N(C(C)=O)C[C@@H](C)[C@H](OC)CN(C)C2=O | 10[16.7 µM] | -5
COCCNC(=O)C[C@H]1C[C@@H]2c3cc(NC(=O)Nc4ccc(OC)cc4)ccc3O[C@@H]2[C@@H](CO)O1 | 6[16.7 µM] | 36
O=C(N[C@@H]1CC[C@@H](CCn2cc(C3(O)CCCC3)nn2)O[C@H]1CO)C1CCCCC1 | 10[16.7 µM] | -4
CN(C)C(=O)C[C@H]1C=C[C@@H](NC(=O)C2CCC2)[C@H](CO)O1 | 14[16.7 µM] | -5
C[C@@H]1CN([C@@H](C)CO)S(=O)(=O)c2ccc(C#CC3CC3)cc2O[C@H]1CN(C)C(=O)c1ccccc1 | 7[16.7 µM] | 1
C[C@@H]1CCCCO[C@H](CN(C)C(=O)Nc2ccc3c(c2)OCO3)[C@@H](C)CN([C@@H](C)CO)C(=O)c2cc(NS(=O)(=O)c3ccc(F)cc3)ccc2O1 | 4[16.7 µM] | -4
O=C(N[C@@H]1CC[C@H](CCNS(=O)(=O)c2ccc(F)cc2)O[C@@H]1CO)C1CCC1 | 38[16.7 µM] | 1
C[C@H](CO)N1C[C@H](C)[C@@H](CN(C)S(C)(=O)=O)OCCCC[C@H](C)Oc2ccc(NC(=O)CCCN(C)C)cc2C1=O | 13[16.7 µM] | 17
C[C@H]1CN([C@@H](C)CO)C(=O)c2cccc(NC(=O)C3CCOCC3)c2O[C@H]1CN(C)CC1CC1 | -9[16.7 µM] | -13
COc1ccc(NC(=O)Nc2cccc3c2O[C@@H](CN(C)S(=O)(=O)c2ccc(OC)cc2)[C@@H](C)CN([C@H](C)CO)C3=O)cc1 | -1[16.7 µM] | 8
CNC[C@@H]1OCCCC[C@H](C)Oc2ccc(NC(=O)Nc3ccc(F)cc3)cc2C(=O)N([C@@H](C)CO)C[C@H]1C | 19[16.7 µM] | 38
C[C@H]1CCCCO[C@H](CN(C)Cc2ccncc2)[C@@H](C)CN([C@@H](C)CO)C(=O)c2cc(N(C)C)ccc2O1 | -5[16.7 µM] | 1
C[C@H](O)C#Cc1cnc2c(c1)C(=O)N([C@H](C)CO)C[C@H](C)[C@H](CN(C)C(=O)c1ccccc1)O2 | 11[16.7 µM] | -4
O=S(=O)(N[C@@H]1CC[C@H](CCn2cc(-c3cccc(F)c3)nn2)O[C@@H]1CO)c1ccc(F)cc1 | 9[16.7 µM] | -7
COCC(=O)N(C)C[C@H]1Oc2cc(-c3cccnc3)ccc2S(=O)(=O)N([C@@H](C)CO)C[C@H]1C | -2[16.7 µM] | -11
Cc1cc(C(=O)Nc2ccc3c(c2)C(=O)N(C)[C@@H]2CC[C@H](CC(=O)NCC(F)(F)F)O[C@@H]2CO3)no1 | -16[16.7 µM] | 9
C[C@@H]1CN([C@@H](C)CO)C(=O)c2cc(-c3cccc(C#N)c3)cnc2O[C@@H]1CN(C)C(=O)c1ccccn1 | -5[16.7 µM] | -19
C[C@@H]1CCCCO[C@@H](CN(C)C(=O)NC2CCCCC2)[C@H](C)CN([C@H](C)CO)C(=O)c2cc(NC(=O)Nc3ccc(F)cc3)ccc2O1 | -7[16.7 µM] | 2
Cc1ccc(S(=O)(=O)N(C)C[C@H]2OCCCC[C@@H](C)Oc3ccc(NS(=O)(=O)c4c(C)noc4C)cc3C(=O)N([C@H](C)CO)C[C@@H]2C)cc1 | 1[16.7 µM] | -2
COc1ccccc1C#Cc1ccc2c(c1)O[C@@H](CN(C)Cc1cncnc1)[C@@H](C)CN([C@H](C)CO)S2(=O)=O | 45[16.7 µM] | 7
C[C@H]1CN([C@@H](C)CO)C(=O)c2cccc(NS(=O)(=O)c3ccc(F)cc3)c2O[C@H]1CN(C)S(=O)(=O)c1ccc(Cl)cc1 | 4[16.7 µM] | -1
CCCC#Cc1cnc2c(c1)C(=O)N([C@@H](C)CO)C[C@@H](C)[C@@H](CN(C)Cc1cccnc1)O2 | -4[16.7 µM] | -1

The list is partial (hit frequency here may not be typical).
